# nsP2pro inh – Primary qHTS for inhibitors of NSP2Pro chikungunya virus (CHIKV); Polyprotein P1234 (Chikungunya virus (strain S27-African prototype)), Q8JUX6; FRET peptide cleavage, nsP2pro, fluorescence 1 h; Potency, µM (titrated, usually from 24.9 µM), inactives show at the top dose activity change, negative = inhibition, usual class: inhibitors; 31,000 compounds, 1.1% hits; AID 1964107, 2024; active means well fitted inhibition curve with a large enough effect; inconclusive means small, poorly fitted or top-dose-only effect; inactive means no such curve, though single readings can be large or run the other way; also: nearly all actives have a fitted effect of over 60% in size; a reference inhibitor and vehicle were the controls
# * = called active by the depositor; i = inactive; ? = inconclusive; & = joins results of further samples; [ ] = remark or other dose. % is scaled to controls: 0 for no effect and ±100 for the full control effect; potency is read from the fitted curve at half-maximal effect.
SMILES,nsP2pro inh
Cc1ccc(C(=O)N2C[C@@H](F)C[C@H]2C(=O)N2CCOCC2)cc1,-0.3%
N=c1sc2c(n1CC(=O)c1ccc([N+](=O)[O-])cc1)CCCC2,-7.6%
COc1ccc2c(c1OC)C(=O)O[C@H]2[C@@H]1c2cc3c(cc2CCN1C)OCO3,-2.6%
Cc1cc(F)ccc1NC(=O)CCSc1nc(-c2ccco2)cc(C(F)(F)F)n1,-30.1%
O=C(CNC(=O)c1ccc2ccccc2c1)OC(C(=O)Nc1cc(C(F)(F)F)ccc1Cl)c1ccccc1 (configuration not stated),-7.7%
COc1ccc(S(=O)(=O)N(CCc2ccccc2)CC(=O)NCc2ccc(C)cc2)cc1,-21.2%
Cc1nc2ccc(Nc3nc(-c4ccncc4)nc4ccccc34)cc2s1,i
CN1CCCCC1CCNC(=O)c1ccc(N2CCOCC2)nc1 (configuration not stated),1.5%
CCCc1ccc(OCC(=O)N(Cc2nc(-c3cccnc3)no2)C(C)C)cc1,3.2%
Cc1ccccc1NC(=O)c1ccc(F)c(S(=O)(=O)N(C)C2CCCCC2)c1,-9.9%
O=S1(=O)N=C(N2CCOCC2)c2ccccc21,-0.7%
C[C@H](C(=O)NCCN1CCOCC1)C1CC[C@@]2(C)Cc3sc(CS(=O)(=O)C(C)(C)C)nc3[C@@H](C)[C@@H]2[C@H]1O (some centres not stated),-26.4%
O=C(CNC(=O)C1CCCCCC1)OC(C(=O)Nc1cc(C(F)(F)F)ccc1Cl)c1ccccc1 (configuration not stated),-4.4%
O=C1COc2cc([S+](=O)([O-])Nc3ccc(Cl)c(Cl)c3)c(Cl)cc2N1,3.1%
CC(C)/C=C1\NC(=O)C(C(C)C)n2c1nc1c(c2=O)C=CC=CO1 (configuration not stated),-21.7%
CC(=O)c1cc2cccc(OCC(O)CNC(C)C)c2o1 (configuration not stated),-4.2%
CCCCNc1nc(C#N)nc(Nc2ccccc2)n1,i
O=C(c1ccc2c(c1)ncn2-c1ccc(C(F)(F)F)cc1)N1CCCCC1,i
CC(=O)O[C@H]1C[C@@]2(C)[C@@H](CC[C@H]3[C@@]4(C)C=CC(=O)[C@@H](C)[C@@H]4[C@H](OC(C)=O)C(=O)[C@@]32C)/C1=C(\CCC=C(C)C)C(=O)O,-9.0%[10 µM]
O=C(Nc1ccc(OC(F)(F)F)cc1)c1nc2ccccc2nc1N1CCCCC1,?
CCOc1ccc(CNC(=O)C2CCCCN2S(=O)(=O)c2ccc(F)cc2)cc1OC (configuration not stated),-17.3%
COCC1CCCN(C(=O)c2cc(Cn3c(C)nc4ccccc43)[nH]n2)C1 (configuration not stated),1.9%
COC1CCN(CC2CCCCCN2)CC1 (configuration not stated),-1.0%
O=C(O)[C@@H]1CN(C(=O)CCCc2cn[nH]c2)C[C@H]1c1ccc2c(c1)OCO2,-2.5%
COc1cccc(CN2CCC(Oc3ccc(-c4noc(C5CC5)n4)cc3)C2)c1 (configuration not stated),-1.9%

# Next section; it opens with the five that closed the last part.
SMILES,nsP2pro inh
CCOc1ccc(CNC(=O)C2CCCCN2S(=O)(=O)c2ccc(F)cc2)cc1OC (configuration not stated),-17.3%
COCC1CCCN(C(=O)c2cc(Cn3c(C)nc4ccccc43)[nH]n2)C1 (configuration not stated),1.9%
COC1CCN(CC2CCCCCN2)CC1 (configuration not stated),-1.0%
O=C(O)[C@@H]1CN(C(=O)CCCc2cn[nH]c2)C[C@H]1c1ccc2c(c1)OCO2,-2.5%
COc1cccc(CN2CCC(Oc3ccc(-c4noc(C5CC5)n4)cc3)C2)c1 (configuration not stated),-1.9%
O=C1NS(=O)(=O)c2cscc21,-2.3%
COC(=O)N[C@H](C(=O)N1CCC[C@H]1c1ncc(-c2ccc(-c3ccc(-c4cnc([C@@H]5CCCN5C(=O)[C@@H](NC(=O)OC)C(C)C)[nH]4)cc3)cc2)[nH]1)C(C)C,?
Cc1ccccc1Nc1nn2c(=O)c3ccc(C(=O)NCC(C)c4ccccc4)cc3nc2s1 (configuration not stated),-24.8%
CCOC(=O)c1cnn(-c2cccc(F)c2)c1C1CCNCC1,22.8%
C/C=C/C=C/C(=O)OC1CC/C=C/C(O)C(O)C(CCC)OC1=O (configuration not stated),?
Oc1ccc(CNc2cc(C(F)(F)F)ccn2)c2cccnc12,-3.2%
O=C(O)c1cc(-c2ccncc2)cc(S(=O)(=O)N2CCCCCC2)c1,-14.6%
COc1ccc(NC(=O)CN2C(=O)COc3ccc(S(=O)(=O)NC4CCCC4)cc32)cc1OC,-22.9%
CC(=O)[C@H]1CC[C@H]2[C@@H]3CC=C4C[C@@H](OS(=O)(=O)O)CC[C@]4(C)[C@H]3CC[C@]12C,15.5%
O=C(CNC(=O)c1ccccc1)OC(Cc1ccccc1)C(=O)Nc1cc(C(F)(F)F)ccc1Cl (configuration not stated),1.1%
Cc1nc([C@@H]2CN(C(=O)CCc3c(C)noc3C)C[C@H]2C(N)=O)n[nH]1,-13.2%
CN(Cc1ccccc1)C(=O)C1CCN(Cc2cc3ccccc3n2Cc2ccccc2)CC1,-13.0%
CC(C)Nc1nc2cc(Cl)c(Cl)cc2n1[C@H]1O[C@@H](CO)[C@H](O)[C@@H]1O,-12.8%&-7.1%
CC1CCCN(CCCNC(=O)c2cc3c(Cl)nc4ccccc4c3s2)C1 (configuration not stated),94.3%[activator]
CC(=O)c1cccc(NC(c2ccc(F)cc2)c2nnc(-c3ccccc3)o2)c1 (configuration not stated),-14.3%
O=S(=O)(NCC(Nc1ccc(Cl)cc1)c1ccccc1)c1ccccc1 (configuration not stated),4.8%
O=C(Nc1cc(C(F)(F)F)ccc1Cl)c1ccc2c(c1)CCN2S(=O)(=O)c1ccccc1,-9.6%
CC(C(=O)Nc1cc(C#N)ccc1CCCC(=O)O)c1ccc(F)c2ccccc12 (configuration not stated),-13.9%
O=C(Nc1cncnc1)c1cccs1,-2.6%
Cc1cc(F)ccc1S(=O)(=O)Nc1cnccc1C(=O)Nc1nc(-c2ccccc2)cs1,i
O=C(Nc1ncc(Cc2ccccc2)s1)c1ccc(-c2cccc([N+](=O)[O-])c2)o1,-10.7%
O=C(OCC1=C[C@@H](O)[C@@H]2C=CO[C@@H](O[C@@H]3O[C@H](CO)[C@@H](O)[C@H](O)[C@H]3O)[C@H]12)c1ccc(O)cc1,55.0%[activator][10 µM]
O=S(=O)(c1ccccc1)c1nc(-c2cccs2)oc1SCc1ccc(F)cc1,2.2%
COc1ccccc1-c1[nH]nc2ncc(C(=O)N3CCN(Cc4ccccc4)CC3)nc12,i
CCOC(=O)c1ccc(NC(=O)c2c(NCc3cccc(OC)c3)sc3c2CCC3)cc1,-14.3%

# Taken from the entries so far, three compounds:
SMILES,nsP2pro inh
Cc1ccc(C(=O)N2C[C@@H](F)C[C@H]2C(=O)N2CCOCC2)cc1,-0.3%
N=c1sc2c(n1CC(=O)c1ccc([N+](=O)[O-])cc1)CCCC2,-7.6%
COc1ccc2c(c1OC)C(=O)O[C@H]2[C@@H]1c2cc3c(cc2CCN1C)OCO3,-2.6%

# Further records:
SMILES,nsP2pro inh
CCOc1cccc(-c2cc(-c3n[nH]c(=O)n3CC)c3ccccc3n2)c1,i
C[C@H](C(=O)N1CCOCC1)C1CC[C@@]2(C)Cc3sc(-c4ccccc4)nc3[C@@H](C)[C@@H]2[C@H]1O (some centres not stated),-2.0%
Cc1cccc(S(=O)(=O)NC2CCN(C#N)C2)c1 (configuration not stated),-0.5%
CC1=CC(=O)[C@]2(O[C@@H]3O[C@@H](C)[C@H](O)[C@@H](O)[C@H]3OC(=O)/C=C/c3ccccc3)C=CO[C@@H](O[C@@H]3O[C@H](CO)[C@@H](O)[C@H](O)[C@H]3O)[C@H]12,30.0%[10 µM]
O=C(Nc1cccc(-c2nnc3n2CCCC3)c1)c1ccccn1,i
O=C1CCCCN1CCNc1ccc(-c2nc(-c3ccccc3F)no2)cn1,-0.5%
Cc1cccc(N2CCN(C(=O)CCS(=O)(=O)c3ccc4c(c3)CC(=O)N4C)CC2C)c1 (configuration not stated),-29.1%
COc1cccc(C2CC(=O)Nc3c2c(=O)n(C)c2nc4ccccc4n32)c1 (configuration not stated),-11.2%
COc1cc(OC)cc(C(=O)N2CCN(C(=O)COc3ccccc3)CC2)c1,-16.8%
Nc1nonc1-c1nc2ccccc2n1CC(=O)Nc1cccc(C(F)(F)F)c1,-9.6%
CC1CCC(C(=O)N(c2cc(C#CC(C)(C)C)sc2C(=O)O)C2CCC(O)CC2)CC1 (configuration not stated),-10.2%&9.8%
Cc1ccc(-c2csc(N3CCC(C(N)=O)CC3)n2)cc1,-11.6%
COC1CCN(C(=O)Nc2ccccc2)CC(=O)N(C)c2ccccc21 (configuration not stated),-8.9%
Cc1cc(=O)[nH]c2nnc(SCc3cccc(F)c3)n12,-14.5%
Cc1ccc(NC(=O)CSc2nc(-c3cccs3)nc3cc(=O)[nH]n23)cc1C,-6.9%
O=C(CSc1nccn1Cc1ccc(F)cc1)NCc1ccco1,-29.4%
CC(=O)Nc1ccccc1OCc1cc(=O)n2c3c(sc2n1)CCCC3,-16.5%
CCN1CCN(c2ncc3c(n2)CCN(Cc2ccc(OC)c(OC)c2)C3)CC1,11.2µM*
CN1CCN(C(=O)C(=O)Nc2c3c(nn2-c2ccc(Cl)cc2)CSC3)CC1,-9.4%
Cc1c(-c2ccccc2)oc2c(C(=O)OCCN3CCCCC3)cccc2c1=O,3.2%
CNC(=O)[C@@H]1C[C@H](Oc2ccccc2)CN1S(=O)(=O)c1cccs1,3.7%
Cc1ccc(COC(=O)c2[nH]c3c(c2C)C(=O)CC(c2ccc(N(C)C)cc2)C3)cc1 (configuration not stated),-11.5%
CCC(=O)O[C@H]1CC[C@H]2[C@@H]3CC[C@H]4CC(=O)[C@H](C)C[C@]4(C)[C@H]3CC[C@]12C,-10.5%
N#Cc1ccc(-n2nc(C3CCOCC3)nc2C2(C(N)=O)CC2)cc1,3.6%
C=CC(=O)N1CCN(C(=O)CNc2cc(I)c(Cl)cc2O)CC1,?

# Next section.
SMILES,nsP2pro inh
COc1ccc(Cl)cc1NC(=O)CN(C)S(=O)(=O)c1ccc2c(c1)CCCN2C(C)=O,-14.1%
CC(C)=CCCC1(C)C=Cc2c(O)c3c(c(CC=C(C)C)c2O1)OC12C(=CC4CC1C(C)(C)OC2(C/C=C(/C)C(=O)O)C4=O)C3=O (configuration not stated),?
CC(=O)OCC(=O)[C@@]1(O)[C@H](C)C[C@H]2[C@@H]3C[C@H](F)C4=CC(=O)C=C[C@]4(C)[C@@]3(F)[C@@H](O)C[C@@]21C,-6.9%
CCc1ccc(S(=O)(=O)N(C(=O)Oc2ccccc2)c2ccc3oc(C)c(C(=O)OC)c3c2)cc1,-26.7%
CC(C)(C)OC(=O)N1CCC(c2c(C(=O)NC3CCN(Cc4ccccc4)CC3)cnn2-c2ccc(F)cc2F)CC1,20.8%
COC(=O)C1=CN(Cc2cccc(Cl)c2)S(=O)(=O)N=C1C,3.1%
CN1CCN(Cc2ccc(NC(=O)Nc3ccc(Oc4cc(NC(=O)C5CC5)ncn4)cc3)cc2C(F)(F)F)CC1,-14.1%
CC/C=C\CC1C(=O)CCC1CC(=O)OC (configuration not stated),-8.4%
Cc1cccc(Cn2c(SCc3ccc(C(=O)N4CCCCCC4)cc3)nc3ccncc32)c1,10.9%
CN(C)c1cccc(N2CCN(c3nn4c(=O)c5ccccc5nc4s3)CC2)c1,-0.5%
CCOc1ccccc1CN1CCC2(CCN(C(=O)c3ccccc3C)CC2)Oc2ccccc21,-29.5%
CCN(CCc1nc2ccc(C)cc2[nH]1)C(=O)c1ccccc1C1CCNC1 (configuration not stated),i
CC[C@H]1CN2CCc3cc(OC)c(OC)cc3C2C[C@@H]1CC1NCCc2cc(OC)c(OC)cc21 (some centres not stated),-4.9%
Cc1ccc(Cl)cc1N1CCN(C(=O)C2CCC(CNS(=O)(=O)c3cccs3)CC2)CC1 (configuration not stated),-17.5%
CCOc1ccc(-c2cc(NC(=O)Nc3ccccc3C(F)(F)F)c(C(=O)OC)s2)cc1,6.6%
C=CCC/C=C/C#CCCCCCCCC[C@H]1C(=O)O[C@H](C)[C@@H]1O,?
COc1ccc(CCNC(=O)c2ccc(CS(=O)(=O)Cc3cccc(C)c3)o2)cc1OC,-15.9%
Cc1ccoc1C(=O)N1CC[C@@H]2CN(S(C)(=O)=O)[C@@H]2C1,2.0%
CCOc1ccc(NC(=O)Cn2nc(-c3ccncc3)ccc2=O)cc1,-33.7%
CCOc1ccc(NC(=O)CN2CCN(C3CCCCC3)C(=O)C2=O)cc1,-13.1%
CC(=O)Nc1ccc(-c2ccc3n(c2=O)C[C@H]2C[C@@H]3CN(C3CCN(C)CC3)C2)cc1,-10.7%[39.2 µM]
C/C=C/C=C/C=C/C(=O)N(C)C(C(=O)NC(C)C(=O)N1CCCC1C(N)=O)C(C)C (configuration not stated),-21.0%[10 µM]
CCCn1c(=O)n(-c2cc(Cl)c(OC)cc2OC)c(=O)c2c3c(sc21)CN(C(C)=O)CC3,-7.9%
Cc1c(C(=O)OC2CCCCCC2)[nH]c2c1C(=O)CC(c1ccccc1Cl)C2 (configuration not stated),-22.9%
CC(C)(C)NC(=O)Nc1nnc(-c2ccncc2)s1,2.6%

# New compounds follow.
SMILES,nsP2pro inh
C=CCCCCCCCCC(=O)O[C@H]1CC[C@H]2[C@@H]3CCC4=CC(=O)C=C[C@]4(C)[C@H]3CC[C@]12C,-15.1%
CCc1ccc(N2CCn3c2nc2c3c(=O)n(Cc3c(F)cccc3Cl)c(=O)n2C)cc1,-6.5%
Cc1ccc(CNC(=O)CCNS(=O)(=O)c2cccc3nsnc23)cc1,-5.5%
CC/C=C\CC1C(=O)C=CC1(CCCCCCCC(=O)O)OC(C)=O (configuration not stated),65.5%[activator]
CC1(C(=O)N2CCc3ccccc32)CCCCC(=O)N1 (configuration not stated),-1.2%
CN(C)CCN1CC2(CCCN(C(=O)CCCn3cnnn3)C2)CCC1=O (configuration not stated),-7.0%

# Screening data from PubChem BioAssay.

# The list is partial, so the mix of outcomes need not match the whole.
